Rango dissoc inh – inhibition of RanGTP-driven Rango-importin beta dissociation; O95149+P62826; Biochemical FRET Rango-importin beta, RanGTP-induced dissociation; Potency, µM (highest dose often 46.1 µM), without a hit: at the highest dose activity change, negative = inhibition; AID 540253; 340,000 tested, 0.071% active; active means falling FRET ratio curve, often poorly fitted, with flat reads before Ran was added; inconclusive means other falling curves, or compound fluorescence or quenching; inactive means flat or rising ratio curve;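 further: potency means the concentration at half of the fitted maximal effect; % of control where 0% means no effect; nearly all actives have a fitted effect of over 45% in size; -100% = wells without RanGTP and RCC1; the record marks most hits as doubtful in a second field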
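Rango FRET biosensor (snurportin-1 IBB flanked by N-terminal EYFP and C-terminal CFP10) at 0.1 uM, with 0.25 uM importin beta in PBS, 1mM DTT, 0.02% Tween-20, 0.1% BSA. 0.6 uM Ran, 2mM GTP and 0.2 uM RCC1 were then added for 45 min at room temperature. Inhibition read as loss of FRET rise.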
Rango complex inh – Rango-importin beta binding inhibition; Q14974; Potency, µM (highest dose often 92.2 µM), for inactives: at the highest dose inhibition of complex formation; 340,000 tested, 0.031% active; Rango CFP/YFP FRET sensor + importin beta, 45 min; active = rising FRET ratio curve, often small or poorly fitted; inconclusive = mostly compound fluorescence or quenching in the first reads; inactive = flat curves in all reads;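 further: potency means the concentration at half of the fitted maximal effect; 0% = DMSO wells and 100% = buffer wells lacking importin beta; nearly all actives have a fitted effect of over 15% in size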
Target sequence (Q14974 whole entry, looked up): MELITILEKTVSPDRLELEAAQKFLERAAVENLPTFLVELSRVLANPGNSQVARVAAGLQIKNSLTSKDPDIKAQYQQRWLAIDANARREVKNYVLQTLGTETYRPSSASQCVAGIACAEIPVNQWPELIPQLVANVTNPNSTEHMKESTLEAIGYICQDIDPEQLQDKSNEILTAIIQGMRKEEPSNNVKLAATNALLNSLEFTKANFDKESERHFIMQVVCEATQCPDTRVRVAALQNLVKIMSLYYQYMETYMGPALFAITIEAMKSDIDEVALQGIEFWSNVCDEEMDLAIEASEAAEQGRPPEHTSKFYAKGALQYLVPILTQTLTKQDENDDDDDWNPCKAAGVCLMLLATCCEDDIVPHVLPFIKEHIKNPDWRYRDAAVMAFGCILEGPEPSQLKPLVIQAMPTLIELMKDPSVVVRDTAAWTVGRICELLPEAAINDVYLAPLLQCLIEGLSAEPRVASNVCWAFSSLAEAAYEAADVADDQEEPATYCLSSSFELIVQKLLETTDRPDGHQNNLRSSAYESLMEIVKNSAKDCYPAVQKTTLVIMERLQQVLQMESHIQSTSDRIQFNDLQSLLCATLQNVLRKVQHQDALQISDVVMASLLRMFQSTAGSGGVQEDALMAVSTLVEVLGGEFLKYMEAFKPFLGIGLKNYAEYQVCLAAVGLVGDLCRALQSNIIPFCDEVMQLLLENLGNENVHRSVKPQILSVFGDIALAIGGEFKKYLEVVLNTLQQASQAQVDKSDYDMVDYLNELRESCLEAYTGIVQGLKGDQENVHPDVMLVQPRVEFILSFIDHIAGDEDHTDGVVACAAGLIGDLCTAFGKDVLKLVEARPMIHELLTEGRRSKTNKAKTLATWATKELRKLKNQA
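FRET biosensor Rango (snurportin 1 IBB between N-terminal EYFP and C-terminal Cerulean), 50 nM in PBS/1 mM DTT/0.02% Tween-20/0.1% BSA, preincubated 5 min RT with compound; 0.125 microM importin beta added, 45 min RT, CFP/YFP FRET ratio read.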
GLA inh pH 4.5 – inhibitors of human alpha-galactosidase A at pH 4.5 | AID 1467 | activity change, negative = inhibition, % at 105 µM | 230,000 tested, under 10 active | P06280 | purified enzyme, 4-MU-alpha-Gal fluorescence, pH 4.5; inconclusive = small, poorly fitted or top-dose-only inhibition, or a rising curve; inactive = flat fitted curve, though single readings scatter; no compound was filed as active;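 further: 0% = full activity with enzyme and -100% = basal without enzyme; dose as in the result columns while the protocol names 77 µM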
miR-21 FLuc – raises the signal of a miR-21 reporter; 340,000 tested, under 10 active; Potency, µM (titrated, usually from 38.3 µM), inactives show at the highest dose reporter change, positive = more light; HeLa miR-21 FLuc reporter, luciferase, 48 h; active = well fitted rising curve with a large enough effect; inconclusive = small, poorly fitted or top-dose-only effect; inactive = no such curve, though single readings can be large or run the other way;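 further: % of control where 0% means no effect; miR-21 action dims this reporter so a rising signal means less miR-21 action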
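HeLa miR-21-FLuc reporter line, endogenous miR-21; 2000 cells/well in DMEM/10% FBS; compound titration up to ~40uM final, 48 h, 37 degree Celsius; luciferase detection reagent, 15 min lysis, CCD luminescence.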
Starred values were filed as active, the others as inactive; ? = inconclusive; / = not tested or not shown; & = joins results of further samples; [ ] = dose if it differs, or a comment. Not all compounds are listed; the hit share may differ from the screen's.

GLA inh pH 4.5	Rango complex inh	miR-21 FLuc	Compound	Rango dissoc inh
-4	0.2%	28%	CCCCCc1cc(=O)oc2c(C(CCN3CCCC(C)C3)c3cc(OC)c(OC)c(OC)c3)c(OC)cc(OC)c12 (stereo not given)	-2%
1	-1.6%	-5%	Cc1ccc(-n2c(CSc3nc(C)cc(C)n3)n[nH]c2=S)cc1	-12%
-4	?	-35%	N#CC1=C(N)NC(SCC(=O)c2ccccc2)=C(C#N)C12CCCC2	-16%
1	-0.3%	-5%	O=C(/C=C/c1ccc2c(c1)OCO2)Nc1cccnc1	1%
/	-0.7%	/	Cc1cnc(C(=O)N2CCN(S(=O)(=O)c3cc(C(F)(F)F)cc(C(F)(F)F)c3)CC2)cn1	-14%
/	-0.1%	-2%	CNS(=O)(=O)c1ccc(C)cc1	27%
/	-2.5%	-1%	C=CCNc1nc(-c2c(C)nc3ncccn23)cs1	30%
/	0.2%	0%	O=C(N/N=C/c1ccc(C(=O)O)cc1)C(=O)N1CCCCCC1	7%
/	?	/	Cn1c2ccccc2c(=O)c2cc(NCCCN3CCOCC3)ccc21	?
/	-0.3%	/	O=C(OCC(=O)N(c1ccccc1)C1CCCCC1)c1ccc(CO)cc1	-3%
-7	-3.7%	2%	O=C(COC(=O)c1cccc(Br)c1)NCCc1ccccc1	29%
17	?	1%	COc1ccc2[nH]c(=O)c(C(c3nnnn3C3CCCCC3)N3CCN(C)CC3)cc2c1 (stereo not given)	-17%
/	-4.0%	/	COc1ccc2cc(CO)c3cc(OC)c(OC)cc3c2c1	-6%
-2	2.3%	-35%	Cc1ccc(/C=N/NC(=O)Cc2cccn2C)cc1	-1%
/	-2.4%	0%	CCc1cc(=O)oc2cc(OC(C)C(=O)NCc3ccccn3)ccc12 (stereo not given)	0%
5	-1.4%	-5%	Clc1cccc(-c2nn3c(Cn4cnc5ccccc54)nnc3s2)c1	2%
10	-1.6%	-35%	O=C(COC(=O)c1ccccc1NCc1ccco1)Nc1ccc2c(c1)OCO2	-14%
/	?	-5%	COc1cccc(/C=C2\Oc3cc(OCC(=O)N4CCC[C@H]4C(=O)O)ccc3C2=O)c1	?
/	-2.3%	-1%	CCc1csc(CCNC(=O)C2CCC(=O)N(CCc3cccc(F)c3)C2)n1 (stereo not given)	-12%
3	-3.5%	-1%	CCOc1c(CNc2nnnn2C)cccc1OC	-8%
0	-0.6%	-2%	CC(/C=C/c1ccco1)=N/NC(=O)c1ccc(C)nc1	1%
-6	-3.7%	1%	Cc1cccc(S(=O)(=O)c2c(N)n(/N=C/c3cccnc3)c3nc4ccccc4nc23)c1	-14%
/	-1.0%	0%	CN(C)C(=O)c1cc(C(=O)Cc2ccccc2)c[nH]1	17%
/	-3.3%	/	Cc1ccc(C(=O)OCC(=O)NCCN2C(=O)CSC2=O)cc1[N+](=O)[O-]	-2%
/	1.4%	/	Cc1cccc(N2CCN(CC(O)COc3ccc4ccccc4c3)CC2)c1 (stereo not given)	1%
2	?	1%	CC(c1ccccc1)C1C(C#N)=C(N)OC2=C1C(=O)CCC2 (stereo not given)	7%
/	-2.7%	1%	CCn1c(CC(=O)Nc2ccccc2F)nnc1SCC(=O)NC1CCCC1	1%
-13	0.0%	2%	O=C(NCCc1ccccc1)C(=O)c1c(-c2ccccc2)cc2ccccn12	9%
-4	-1.3%	-1%	COCCN(CCOC)C(=O)CC(=O)N(CCOC)CCOC	-10%
2	9.3%	-7%	COC(=O)c1ccc(S(=O)(=O)N2CCCCCC2)cc1	-5%
2	?	0%	COc1cc(C2C(C#N)=C(N)Oc3cc(C)oc(=O)c32)cc2c1OCO2 (stereo not given)	-13%
-4	?	-8%	O=C(N/N=C/C=C/c1ccccc1)c1cccnc1	1%
/	0.7%	/	CN1CCN(S(=O)(=O)c2cccc(C(=O)Oc3cccc(Br)c3)c2)CC1	-12%
-11	-1.8%	-2%	CC1(C)C2CC=C(/C=N/NC(=S)NCCc3ccccc3)C1C2 (stereo not given)	-4%
5	3.1%	0%	CCSc1nc2ccccc2c(=O)n1OCC(=O)OC	1%
/	-5.7%	/	Cc1nnc(SCCCOc2ccccc2)nc1C	6%
-11	6.3%	-1%	Cc1ccc(C)n1NC(=O)c1ccc([N+](=O)[O-])cc1	2%
-1	-0.4%	-37%	CCS(=O)(=O)N1Cc2ccccc2CC1C(=O)Nc1ccc(C)cc1 (stereo not given)	15%
/	-5.6%	/	COc1ccc(NC(=O)CN(C)C(=O)c2cc(-c3ccco3)nc3ccccc23)cc1	5%
0	-0.6%	-21%	CCN1CCN(c2ccc(NC(=O)c3ccc(C#N)cc3F)cc2Cl)CC1	-8%
-3	7.9%	-18%	Cc1nccc2[nH]c(=O)c(C(=O)NC3CCCCC3C)cc12 (stereo not given)	1%
4	0.9%	-1%	O=C1CC(c2cccc(Cl)c2)Cc2nc(N3CCN(c4ccccc4)CC3)ncc21 (stereo not given)	0%
0	0.5%	0%	COc1ccc(C2C(C#N)=C(N)OC3=C2C(=O)CC(C)(C)C3)cc1OC (stereo not given)	0%
-3	-0.5%	6%	Cc1nn(C)c(Cl)c1/C=N/OC(=O)c1ccccc1	0%
/	7.1%	-1%	CCCn1c(N)c(N(CCOC)C(=O)c2ccc([N+](=O)[O-])c(C)c2)c(=O)[nH]c1=O	0%
/	-3.9%	/	COc1ccccc1NC(=O)c1oc2ccccc2c1NC(=O)c1cc(OC)c(OC)c(OC)c1	-11%
4	?	0%	O=C(c1cc([N+](=O)[O-])ccc1N1CCCCC1)N1CCCCC1	-7%
-1	-4.6%	3%	CCOc1cc(C(=S)N2CCOCC2)ccc1OC(=O)/C=C/c1ccc(OC)c(OC)c1	-5%
/	?	/	C=C(C)CNc1cc(S(=O)(=O)N2CCOCC2)ccc1Oc1ccccc1	-2%
2	3.3%	-18%	CCn1c(SC)nnc1-c1c[nH]c2ccccc12	5%
-9	8.0%	-20%	Cc1nc2cc(C(=O)OCC(=O)N(CC(C)C)C3CCS(=O)(=O)C3)ccc2n1-c1ccccc1 (stereo not given)	3%
-3	-3.4%	2%	Cc1c(Br)c([N+](=O)[O-])nn1CC(=O)NCCc1c[nH]c2ccccc12	4%
/	?	/	Cc1ccc(CN2C(=O)[C@H]3Cc4c([nH]c5ccccc45)C(C)(C)N3C2=O)cc1	?
2	0.0%	-1%	COc1ccc(/C=C/C(=O)NC(=S)Nc2ccc(N3CCN(C(C)=O)CC3)cc2)cc1	10%
-1	3.2%	-4%	O=C(c1cc(Cl)c(=O)n(Cc2ccc(Cl)cc2)c1)N1CCOCC1	6%
/	2.6%	-4%	Cc1cccc(CC(=O)N2CCC(n3nccc3NC(=O)C3CC3)CC2)c1	9%

The listing continues:
GLA inh pH 4.5	Rango complex inh	miR-21 FLuc	Compound	Rango dissoc inh
-8	0.0%	4%	Cc1cc(C)n(C(=O)CNc2ccccc2Cl)n1	0%
4	-0.9%	-8%	O=C(NC12CC3CC(CC(C3)C1)C2)c1cccnc1	-1%
/	-1.5%	/	CCN(CC(=O)Nc1ccc(NC(C)=O)cc1)C(=O)/C=C/c1cn(Cc2ccccc2)nc1-c1cccnc1	-6%
/	0.4%	/	Cc1cc(C(=O)CN2C(=O)C(=O)N(CC(C)C)C2=O)c(C)n1C1CC1	20%
-13	-1.9%	3%	COc1ccccc1OCC(=O)Nc1sc2c(c1C(=O)NCC1CCCO1)CCC2 (stereo not given)	9%
/	0.5%	/	CC(C)(C)NS(=O)(=O)NC(=O)C1=C(N2CCCC2)COC1=O	10%
-3	-4.7%	-3%	COCCCN1C(=O)C(=O)/C(=C(/O)c2ccc(OC(C)C)c(C)c2)C1c1ccncc1 (stereo not given)	-1%
/	-0.6%	16%	O=C(NCc1ccncc1)c1ccccc1Nc1ccc(SC(F)F)cc1	-17%
/	1.9%	-21%	CC(C)CCNC(=O)c1ccc2c(Cl)c3c(nc2c1)CCC3	4%
-4	-5.0%	0%	O=C(NNC1=NS(=O)(=O)c2ccccc21)c1ccccc1Cl	-3%
1	-0.4%	-4%	COCCNC(=O)C1c2cc(OC)c(OC)cc2C(=O)N(C)C1c1cccnc1 (stereo not given)	1%
-6	0.1%	7%	COc1ccccc1NS(=O)(=O)c1cccc(NC(=O)C2CC(=O)N(Cc3ccccc3)C2)c1 (stereo not given)	0%
/	?	17%	COc1ccc(C2c3[nH]c4ccccc4c3C[C@H]3C(=O)N(C4CCN(Cc5ccccc5)CC4)CC(=O)N23)cc1OC (stereo not given in full)	26%
/	-1.6%	2%	CC(C)C[C@@H](C(=O)O)N(Cc1cccc(CN([C@@H](CC(C)C)C(=O)O)S(C)(=O)=O)c1)S(C)(=O)=O	1%
-3	-0.5%	-5%	Cc1cccc(NC(=S)NC(NC(=O)c2ccco2)C(Cl)(Cl)Cl)c1 (stereo not given)	6%
-25	-0.4%	-12%	Cc1cccc(/C=N/NC(=O)CNc2cccc3ccccc23)n1	17%
-1	1.5%	-35%	Cc1ccc(C2=NN3C(C(=O)c4ccccc4)Oc4ccccc4C3C2)cc1 (stereo not given)	3%
7	0.4%	0%	CC(C)Cc1nc(SCC(=O)Nc2ccc(S(N)(=O)=O)cc2)n[nH]1	4%
/	0.4%	4%&0%	CCc1ccc(-c2cc(C)no2)cc1S(=O)(=O)Nc1ccc(C)cn1	-9%
-23	-0.4%	1%	COC(=O)c1ccccc1NC(=O)/C=C/C(=O)O	5%
-4	-2.1%	-12%	CCCC(=O)NC1C2CC3CC(C2)CC1C3 (stereo not given)	7%
-2	-1.1%	-18%	Cc1cc(C(=O)CSc2nc3ccc(Cl)cc3[nH]2)c(C)n1C	5%
/	0.4%	/	CC(C)C[C@@H](CNCC(=O)[C@H](CC(C)C)NC(=O)c1[nH]cnc1C(=O)N[C@@H](C)CN)NC(=O)c1nc[nH]c1C(=O)N[C@@H](CC(C)C)C(=O)O	12%
-8	?	-29%	O=C(Nc1ccccc1)C1=C(N2CCOCC2)/C(=C/c2cccnc2)CC1	?
17	?	-40%	O=c1[nH]c(N/N=C/c2ccccc2)nc2ccccc12	?
-3	0.7%	-52%	O=C(/C=C/c1cccs1)Nc1cccnc1	-11%
13	2.7%	-1%	COC(=O)c1ccc(NC(c2ccc(Cl)cc2)P(=O)(OC)OC)cc1 (stereo not given)	6%
6	-1.9%	-3%	Cc1ccc(Nc2nnc(SCC(=O)NC3CCS(=O)(=O)C3)s2)c(C)c1 (stereo not given)	0%
/	-0.8%	3%	CCc1nc2ccccc2c(C(=O)Nc2cc(C)ccc2C)c1C	0%
/	2.1%	/	O=C(CCNS(=O)(=O)c1ccccc1)NCCSc1ccc(Br)cc1	-7%
/	-0.3%	-46%	C[C@@H](C(=O)Nc1ccc2c(c1)OCCO2)n1c(=O)[nH]c2ccccc2c1=O	-4%
-9[21.1 µM]	-3.7%	3%	Cc1ccnc(N2CCN(C(=O)CSc3nc4ccccc4nc3N3CCC(C)CC3)CC2)c1	7%
-2	2.1%&-1.8%	-2%	CCN(CC)Cc1cc(Nc2ccnc3cc(Cl)ccc23)ccc1O	-19%&37%
-12	1.1%	20%	CC(C)N(Cc1nc(-c2ccc(Cl)cc2)no1)C(=O)CN(C)S(=O)(=O)c1ccc(Cl)cc1	2%
-4	0.4%	-7%	CC(C)N1C(=O)c2ccc(C(=O)O)cc2C1=O	6%
-6	-1.8%	5%	O=[N+]([O-])c1cc(CN2CCOCC2)c2cccnc2c1O	-1%

Record cards, as listed above.
CC(C)N(Cc1nc(-c2ccc(Cl)cc2)no1)C(=O)CN(C)S(=O)(=O)c1ccc(Cl)cc1 across the screens: GLA inh pH 4.5 = -12; Rango complex inh = 1.1%; miR-21 FLuc = 20%; Rango dissoc inh = 2%
CCN(CC)Cc1cc(Nc2ccnc3cc(Cl)ccc23)ccc1O across the screens: GLA inh pH 4.5 = -2; Rango complex inh = 2.1%&-1.8%; miR-21 FLuc = -2%; Rango dissoc inh = -19%&37%

Screens: PubChem BioAssay, National Center for Advancing Translational Sciences (NCATS)
